High-throughput results from PubChem BioAssay.
Cruzain Triton – cruzain (T. cruzi) inhibition with detergent; purified cruzain, Z-FR-AMC fluorescence, 0.01% Triton; actives 0.43% (n = 200,000); Potency, µM, for the others: max response, negative = inhibition, most hits filed as inhibitors; P25779; AID 1478; active = well fitted curve in the direction sought with a large enough effect; inconclusive = small, poorly fitted or top-dose-only effect, or another doubt; inactive = no such curve, though single readings can be large; an effect the other way counts as inactive or inconclusive;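 note: plate controls were neutral wells for no effect and buffer without enzyme for full effect; nearly all actives have a fitted effect of over 40% in size; top concentration of the series not given in the record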
Target sequence (P25779 123-467 limits assumed): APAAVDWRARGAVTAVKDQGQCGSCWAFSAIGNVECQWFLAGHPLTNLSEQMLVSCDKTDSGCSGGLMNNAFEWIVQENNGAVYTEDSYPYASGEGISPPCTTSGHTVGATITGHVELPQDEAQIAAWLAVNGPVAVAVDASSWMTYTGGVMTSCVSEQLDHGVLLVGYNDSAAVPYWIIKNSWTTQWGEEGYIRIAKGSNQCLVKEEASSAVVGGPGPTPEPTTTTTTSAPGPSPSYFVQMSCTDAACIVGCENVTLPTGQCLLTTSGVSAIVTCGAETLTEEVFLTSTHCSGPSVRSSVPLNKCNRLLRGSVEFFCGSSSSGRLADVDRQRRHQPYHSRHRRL
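Read-out: AMC fluorescence (360 nm excitation, 450 nm emission), four reads over 2 min, first-to-third difference used. Conditions: cruzain 1.5 nM, Z-FR-AMC 2 uM, pH 5.5 acetate, 5 mM DTT, 0.01% Triton X-100.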
Cruzain inh noDet – inhibitors of Trypanosoma cruzi cruzain without detergent; actives 2.3% (n = 200,000); P25779; purified cruzain, Z-FR-AMC fluorescence, no detergent; Potency, µM, for the others: max response, negative = inhibition, usual class: inhibitors; active = well fitted curve in the direction sought with a large enough effect; inconclusive = small, poorly fitted or top-dose-only effect, or another doubt; inactive = no such curve, though single readings can be large; an effect the other way counts as inactive or inconclusive;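 note: plate controls were enzyme without inhibitor for no effect and buffer without enzyme for full effect; nearly all actives have a fitted effect of over 40% in size; top concentration of the series not given in the record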
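Detergent-free condition (0.00005% Triton X-100) in acetate buffer pH 5.5 with DTT. 1.5 nM enzyme and compound were pre-mixed 15 min, then 2 uM Z-FR-AMC substrate added; reaction progress from fluorescence change between first and third reads (60 s).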
SARS PLP yeast – SARS-CoV PLP inhibition in yeast | actives 0.19% (n = 330,000) | S. cerevisiae expressing SARS-CoV PLpro, growth rescue; control for the full effect not named in the record | Potency, µM (titrated, usually from 32.9 µM), without a hit: at the highest dose activity, positive = growth rescue; note: 0% is about no effect; nearly all actives have a fitted effect of over 55% in size; growth read by luminescence after 48 h
LASV entry inh – blocks Lassa virus binding to or entry into cells | actives 1.2% (n = 300,000) | AID 540256 | Lassa virus pseudotype entry inhibition, cell reporter; control for the full effect not named in the record | Potency, µM (series often up to 37.9 µM), inactives show at the highest dose activity change, negative = inhibition, hits mostly inhibitors; active means well fitted inhibition curve with a large enough effect; inconclusive means small, poorly fitted or top-dose-only effect, or effect the other way; inactive means flat fitted curve, though single readings scatter; tested in HEK293 cells; note: % is set by controls: 0 for no effect and ±100 for the full control effect; nearly all actives have a fitted effect of over 50% in size; luciferase read-out
RE007 growth inh – less growth of the S. pombe RE007 Vpr strain. Potency, µM (highest dose often 92.2 µM), for inactives: at the highest dose activity change, negative = less growth. actives 0.21% (n = 360,000). AID 651644. S. pombe RE007 Vpr strain, BacTiter-Glo ATP luminescence, 24 h; control for the full effect not named in the record; active = well fitted falling curve with a large enough effect; inconclusive = small, poorly fitted or top-dose-only effect; inactive = no such curve, though single readings can be large or run the other way;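 note: % is set by controls: 0 for no effect and ±100 for the full control effect; nearly all actives have a fitted effect of over 50% in size; the assay follows cell death caused by Vpr and the record does not say whether a fall means rescue or toxicity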
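Fission yeast RE007 carrying one integrated HIV-1 vpr copy, seeded at OD 0.01 in PMG+AL medium with 23 nL pinned compound. Grown 24 h at 30 degrees; viability read by BacTiter-Glo luminescence after 5 min.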
NS1 inh – blocks influenza NS1 protein function; S. cerevisiae slowed by influenza A NS1, growth recovery by OD600; Potency, µM (highest dose often 46.1 µM), for the others: at the highest dose activity, positive = more growth; actives 0.4% (n = 270,000); AID 2326; note: actives are rising curves; nearly all actives have a fitted effect of over 50% in size
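A cell-based growth assay was used: compounds that relieve NS1-induced slow growth of budding yeast raise OD600. Assay medium was yeast nitrogen base with ammonium sulphate and -URA supplement, pH 6.0, with 2% galactose.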
2A StopGo – lowers the luciferase signal of an FMDV 2A StopGo reporter; actives 1.2% (n = 410,000); human cells with a luciferase reporter of 2A StopGo recoding; control for the full effect not named in the record; Potency, µM (titrated, usually from 57.9 µM), inactives show at the highest dose signal change, negative = less light; active = well fitted falling curve with a large enough effect; inconclusive = small, poorly fitted or top-dose-only effect; inactive = no such curve, though single readings can be large or run the other way; tested in HEK293T cells; note: % is set by controls: 0 for no effect and ±100 for the full control effect; nearly all actives have a fitted effect of over 45% in size; luciferase light after 4 h
Marburg entry inh – blocks Marburg virus binding to or entry into cells; Marburg virus pseudotyped entry inhibition, cell reporter; control for the full effect not named in the record; about a third of the inactives were read at about 46 µM; Potency, µM (doses to about 37.8 µM), without a hit: at the highest dose activity change, negative = inhibition, actives largely listed as inhibitors; actives 1.8% (n = 300,000); AID 540276; active = well fitted inhibition curve with a large enough effect; inconclusive = small, poorly fitted or top-dose-only effect, or effect the other way; inactive = flat fitted curve, though single readings scatter; tested in HEK293 cells; about a fifth of its hits are not listed in these tables; note: % is set by controls: 0 for no effect and ±100 for the full control effect; luciferase read-out
* marks the source's active call; other numbers are inactive results; ? = inconclusive; . = no result given; & = joins results of further samples; [ ] = dose if it differs, or a comment. Unless noted, calls come from the whole dose curve; as a rule, active means well fitted rising curve with a large enough effect; inconclusive means small, poorly fitted or top-dose-only effect; inactive means no such curve, though single readings can be large or run the other way. Potency is the fitted concentration of half-maximal effect.

SMILES	Cruzain Triton	Cruzain inh noDet	SARS PLP yeast	LASV entry inh	RE007 growth inh	NS1 inh	2A StopGo	Marburg entry inh
CCN(CC)S(=O)(=O)c1ccc(OC)c(NC(=O)c2ccc(=O)[nH]c2)c1	.	.	0%	-27%	7%	-4%	-13%	1%[46.1 µM]
CC(=O)C1C(c2cccc(F)c2)NC(=O)NC1(O)C(F)(F)F (centres undefined)	2.1%	1%	-1%	-29%	54%	6%	-3%	9%
Cc1ccc(C23CC4CC(CC(C(=O)N5CCN(C)CC5)(C4)C2)C3)cc1	.	.	-5%	.	-10%	-4%	?	-1%
CCCNC(=O)CCc1c(C)nc2nc(-c3cc(OC)cc(OC)c3)nn2c1C	0.8%&-0.3%	?	2%	18%[46.1 µM]	19%	4%	-1%&-17%	9%[46.1 µM]
Cc1cc(/C=C(\C#N)c2nnc(N3CCOCC3)n2-c2ccccc2)c(C)n1-c1ccccc1	-9.6%	?	-2%	2%	.	18%	.	-20%
COc1cc(NC(=O)C2CSC3(C)CCC(=O)N23)c(OC)cc1Cl (centres undefined)	.	.	5%	-7%	-4%	.	-12%	16%
Cc1nc2c(=O)n(-c3ccc(F)c(Cl)c3)nc(C)c2s1	.	.	0%	2%	30%	-2%	-9%	10%
Cc1cccc(N=Nc2c(C)nn(-c3ccccc3)c2N)c1C	-9.2%	2%	-73%	-2%	-3%	-5%	16%	-21%
O=C(NCc1ccccc1)C1CCC(CNS(=O)(=O)c2cccs2)CC1 (centres undefined)	.	.	-1%	-1%	0%	-8%	-19%	-10%[46.1 µM]
CCc1cccc(OCCOCCN2CCCC2)c1	4.9%	3%	-3%	1%	-8%	-3%	-23%	-21%[46.1 µM]
N#CCC(=O)Nc1ccc(C(=O)N2CCN(c3ccccn3)CC2)cc1	.	.	-1%	20%	-20%	2%	9%	1%[46.1 µM]
CN1C(=O)C(CC(N)=O)N(NC(=O)c2ccc(Cl)cc2)C1=S (centres undefined)	3.8%	0%	0%	-1%	9%	12%	10%	-7%
Cc1ccc(NS(=O)(=O)c2c(C)[nH]c(C)c2C(=O)N2CCCCC2)cc1F	.	.	1%	.	-4%	8%	19%	.
C=CCNC(=S)Nc1cccc2[nH]ncc12	.	.	1%	?	0%	.	26%	1%
COc1ccccc1NC(=O)CSc1nc(=O)n2cc(C)ccc2n1	.	.	1%	0%[46.1 µM]	2%	.	7%	-3%
COc1ccccc1OCCCSc1nc(-c2ccc(C(C)(C)C)cc2)nc2cc(=O)[nH]n12	-21%	-19%	.	22%[46.1 µM]	.	.	-6%	.
O=C(c1cc2ccccc2o1)N1CCN(S(=O)(=O)c2ccc(Cl)s2)CC1	.	.	-1%	-18%	2%	.	-7%	-8%
CC(=O)c1ccc(N2CCN(CN3C(=O)CC4(CCCC4)C3=O)CC2)c(F)c1	.	.	2%	11%	-4%	-2%	-12%	7%[46.1 µM]
CC(C)(C)NC(=O)C(=O)NNC(=O)c1ccccc1	6.9%	8%	1%	25%	3%	-3%	48%[activator]	29%
Cc1cc(=O)c(C(=O)Nc2ccc(N3CCOCC3)cc2N2CCOCC2)nn1-c1ccccc1Cl	.	.	-3%	-11%	-17%	.	39%[activator]	0%
Cc1ccc(CN2CCN(CC(=O)N/N=C/c3ccccc3F)CC2)cc1	.	.	-1%	.	-6%	3%	50%[activator]	.
Cc1nc2c(O)cccc2cc1CO	.	.	-1%	.	3%	2%	-4%	.
Cc1nc(NC(=O)CN2CCC(O)(c3ccc(F)cc3)CC2)sc1C	.	.	0%	.	4%	?	8%	.
O=C(Cc1nnc(NC(=O)c2cccc([N+](=O)[O-])c2)s1)NCc1ccccc1	.	.	-3%	-1%	7%	-9%	-18%	14%
O=c1cc(-c2ccccc2Cl)oc2c([N+](=O)[O-])c(O)cc(O)c12	2.8%&-6.9%	15%&-7%	-53%	17%	-20%	-31%	-12%	18%
CNC(=S)N1CCC(n2cnc3ccccc32)CC1	.	.	0%	10%	-11%	1%	-4%	-17%[46.1 µM]
Cc1ccc(-c2cc(C(=O)N/N=C/c3c(C)nn(C)c3C)c3ccccc3n2)cc1C	-2.9%	?	2%	?	-2%	-47%	-5%	?
Cc1noc(NS(=O)(=O)c2ccc(NC(=O)c3cccc(S(=O)(=O)Nc4ccccc4F)c3)cc2)c1C	.	.	0%	?	-12%	.	-9%	24%
Cc1cc(N2CCCC2)ccc1C=C(C#N)C#N	.	.	-2%	9%[46.1 µM]	-9%	.	28%	15%[46.1 µM]
CCCCn1c(N)c(N(CCC(C)C)C(=O)CCCc2nc3ccccc3s2)c(=O)[nH]c1=O	.	.	3%	.	-12%	9%	-5%	.
Cc1ccc(OCC(=O)N2CCc3ccccc3C2)c([N+](=O)[O-])n1	.	.	-3%	5%[46.1 µM]	3%	.	15%	0%[46.1 µM]
O=C(N/N=C1\CC2CC=CC12)c1ccccc1Cl (centres undefined)	.	.	3%	.	-7%	.	26%	21%[46.1 µM]
COc1ccc(CCC(=O)NCc2cnn(C)c2)cc1	-1.7%	-3%	-1%	-3%	1%	4%	-15%	3%
COc1ccc(C2(O)CCN(C(=O)c3ccc4c(c3)OCO4)CC2)cc1	0.7%	9%	-3%	1%	6%	-44%	28%	?
Nc1ccc(C(=O)c2ccc3c(c2)OCCO3)cc1N	.	.	.	-24%[14.3 µM]	-7%	-7%	54%[activator]	1%
CC(C)(C)NC(=O)NC(=O)CN1CCCCC1	.	.	0%	3%	-20%	.	8%	3%[46.1 µM]
CCOc1ccc(C2/C(=C(\O)c3ccc4c(c3)OCCO4)C(=O)C(=O)N2CCN2CCOCC2)cc1OCC (centres undefined)	.	.	-2%	.	-21%	-10%	5%	.
CSc1ccc(Cl)c(C(=O)NCC(C)C)c1	-0.2%	-16%	14%	?	-6%	13%	.	-5%
CCOc1ccc(-c2cnc(N)n2C)cc1	.	.	-3%	.	-4%	-1%	35%[activator]	.
Cn1c(Br)nc2c1c(=O)n(Cc1ccccc1)c(=O)n2C	.	.	-1%	16%	1%	-10%	0%	7%
CCOC(=O)Cn1c(-c2cccnc2Cl)nc2cc(C)c(C)cc21	6.1%	8%	9%	11%	-2%	4%	-21%	26%
CCN1C(=O)c2ccc(C(=O)NCc3ccc4c(c3)OCO4)cc2C1=O	-1.2%	-8%	10%	11%	5%	-1%	2%	?
Cc1cc(OCC(=O)N2CCC(C(=O)O)(c3ccccc3)CC2)c2c(C)c(C)c(=O)oc2c1	.	.	-4%	.	-12%	?	-13%	.
COc1ccc(C2CC(c3ccc4ccccc4c3)=NN2C(=O)CSc2ncccn2)cc1 (centres undefined)	-4.9%	-17%	-2%	?	15%	?	32%[activator]	?
CCOC(=O)/C(C#N)=C\c1ccc(N2CCN(C/C=C/c3ccccc3)CC2)cc1	-8.2%	1%	-16%	-6%	-20%	4%	-11%	?
CS(=O)(=O)Nc1cccc(C2=NN(C(=O)c3cccc(F)c3)C(c3cccs3)C2)c1 (centres undefined)	.	.	-2%	.	10%	11%	-27%	.
CC(C)OC(=O)CSc1nnc(-c2cccnc2)n1Cc1ccccc1	-3.4%	?	0%	11%	-6%	-3%	20%	17%
COc1cc(NS(=O)(=O)c2ccc(NC(=S)NC(=O)c3ccccc3)cc2)nc(OC)n1	.	.	-3%	?	-17%	13%	67%[activator]	1%[46.1 µM]
CCN(C(=O)c1cc2c(=O)oc3ccc(C)cc3c2s1)c1ccccc1C	1.1%	10%	.	0%[46.1 µM]	.	.	?	8%[46.1 µM]
Cc1ccc(/C(O)=C2/C(=O)C(=O)N(c3ccccn3)C2c2ccc(F)cc2)cc1 (centres undefined)	.	.	6%	.	-15%	13%	55%[activator]	.
Cc1cc(NC(=O)CC(F)(F)F)n(-c2ccccc2)n1	.	.	-1%	?	36%	.	?	?
CCCC(CCC)C(=O)Nc1cccc(-c2cn3cccnc3n2)c1	0.3%	11%	.	-9%[46.1 µM]	.	.	-25%	.
Nc1nc2n(n1)C(c1cccs1)CC(c1ccccc1)N2 (centres undefined)	-2.9%	-5%	-8%	-1%	-6%	2%	16%	-2%[46.1 µM]
O=C(Nc1ccccc1)N1CCCN(c2ccc(C(F)(F)F)cc2[N+](=O)[O-])CC1	.	.	0%	-24%	6%	-2%	?	16%[14.2 µM]
Cc1n[nH]c(C)c1S(=O)(=O)N(CC(=O)N1CCc2ccccc21)c1ccc(C(C)C)cc1	0.2%	16%	8%	.	-3%	-7%	-10%	.
COc1cccc(-c2nnc(SCC(N)=O)n2-c2ccc(Cl)cc2)c1	1.3%	6%	1%	-10%	-8%	?	-22%	-9%
O=C(NCc1ccccc1Cl)c1c2c(nc3ccccc13)C(=O)N(C1CCCCC1)C2	-3.5%	?	.	-7%[46.1 µM]	.	.	-10%	.
COc1ccc(-n2cnc3cc(NCc4cccs4)ccc32)cc1	-2.2%	-1%	-10%	?	?	-118%	18%	3%
CCC(=O)N1c2ccccc2NC2=C(C(=O)CCC2)C1c1ccccc1 (centres undefined)	1.0%	-5%	6%	10%	-4%	1%	.	-2%
O=C(N/N=C/c1ccco1)c1ccc(NC(=O)C2CC2)cc1	.	.	-1%	9%	4%	3%	-2%	0%[46.1 µM]
COc1ccc(CNC(=O)Cc2csc(NC(=O)Nc3ccccc3OC)n2)cc1	.	.	-6%	?	-5%	.	?	?
C=CCOc1ccc(C(c2c(C)n(C)n(-c3ccccc3)c2=O)c2c(C)n(C)n(-c3ccccc3)c2=O)cc1	.	.	3%	?	5%	-2%	-1%	2%[46.1 µM]
CCC(=Nc1cc(OC)ccc1OC)c1c(O)[nH]c(=O)[nH]c1=O	1.2%	-3%	3%	-6%	6%	?	0%	-15%
